Screening results from PubChem.
PABP polyA inh: PABP poly(A) RNA binding inhibitors, primary screen, biochemical, fluorescence polarization, uHTS; Polyadenylate-binding protein 1 (Homo sapiens), P11940; inhibition, % at 35 µM; 1% of 290,000 active; AID 2014, 2009;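 active means 50% or more with normal probe brightness, or confirmed in later tests; inconclusive means above 50% with abnormal brightness, or retests that disagree; inactive means below 50% or failed in later tests; about a fifth of its hits are not listed in these tables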;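 further: calls also rest on retests at 20 µM and on dose response follow-up; controls were probe without protein and protein plus probe with vehicle; some compounds called inactive have numbers as strong as hits; many hits fall short of the cut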
Rce1 inh: yeast Rce1p protease inhibitors, primary screen, biochemical, fluorescence, cell-free homogeneous | yeast membranes, quenched prenylated peptide cleavage fluorescence | CAAX prenyl protease 2 (Saccharomyces cerevisiae (strain ATCC 204508 / S288c)), Q03530 | calls only | 0.27% of 290,000 active;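 active means fall in fluorescence gain of 50% or more versus controls, with final raw signal at or below 3038400; inconclusive means same 50% fall but final raw signal above 3038400; inactive means fall in fluorescence gain under 50%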;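 further: plate controls were neutral control wells for no effect and wells lacking membranes for full effect; tested at 10 µM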
Target sequence (Q03530 whole entry, looked up): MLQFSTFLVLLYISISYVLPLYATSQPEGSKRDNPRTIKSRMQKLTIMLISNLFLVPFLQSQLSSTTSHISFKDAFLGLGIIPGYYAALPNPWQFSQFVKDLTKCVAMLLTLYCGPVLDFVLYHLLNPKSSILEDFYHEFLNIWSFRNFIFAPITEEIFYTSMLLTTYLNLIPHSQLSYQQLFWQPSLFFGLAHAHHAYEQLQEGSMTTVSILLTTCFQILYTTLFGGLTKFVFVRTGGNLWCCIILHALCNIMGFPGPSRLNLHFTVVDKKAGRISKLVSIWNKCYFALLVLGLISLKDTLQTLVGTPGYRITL
Yeast UUG start: modulators of yeast start codon fidelity, primary screen, whole organism, S. cerevisiae, single point, plate reader. 0.13% of 350,000 active. activity score, % at 18.7 µM. S. cerevisiae UUG-firefly luciferase reporter, luminescence/redox ratio. AID 602363, 2012;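 active means replicate mean at a twofold rise or more, about +100% in these data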;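 further: firefly luciferase made from a UUG start codon reports start codon fidelity; reporter light over untreated wells divided by growth signal over untreated wells; some hits fall short of that in this replicate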
CSC inhib: cancer stem cell viability inhibitors, primary screen, luminescence | 1.1% of 300,000 active | cancer stem cell-like cells viability | inhibition, % at 7.5 µM;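 active means mean at 75% or more and at least half the replicates too; inconclusive means mean and replicates disagree; tested in HMLE shEcad cells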;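 further: 0% = median of negative and 100% = median of positive control wells; the first replicate is given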
HIV Env fusion: inhibitors of HIV-1 Env-driven cell-cell fusion, primary screen, HeLa-JRFL effector, CEM21 target cells, luciferase; inhibition, % at 12.3 µM; 1.1% of 360,000 active; AID 651610, 2012;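 active means mean replicate inhibition score of at least 50 and every replicate individually at or above 50; inconclusive means only one of the two criteria met; inactive means mean below 50 and not all replicates reaching 50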;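 further: 0% = plate neutral controls and 100% = maraviroc near 300 nM; one replicate is shown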
MT1-MMP act inh: blockers of MT1-MMP proenzyme processing, primary screen, HT1080 RFP-PRO-GFP cells, GFP/RFP fluorescence; GFP/RFP ratio fluorescence, overnight; percent of plate control window, DMSO zero; GFP/RFP ratio change, % at 20 µM; 0.061% of 360,000 active; AID 651647, 2012;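 active means GFP/RFP ratio change of at least 30% with cell ATP level not reduced by more than half and red fluorescence within 50% of control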; further: strong numbers were not always called active
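Material: RFP-PRO-GFP reporter HT1080 cells. Dosing: single-point 20 µM compound, 1% DMSO. Controls: DMSO and RFP-L50D-GFP cell wells. Timing: cells overnight before dosing, compound overnight, 37 °C, 5% CO2. Measure: GFP/RFP fluorescence ratio.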
eIF4H FP inh: human eIF4H binding inhibitors, primary screen, translation initiation inhibitor project, biochemical, uHTS, fluorescence polarization. Eukaryotic translation initiation factor 4H (Homo sapiens), Q15056. eIF4H fluorescence polarization binding assay. inhibition, % at 35 µM. 0.94% of 290,000 active. AID 2012, 2009;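 active means 50% or more with normal probe brightness, or confirmed in later tests; inconclusive means above 50% with abnormal brightness, or retests that disagree; inactive means below 50% or failed in later tests; about a fifth of its hits are not listed in these tables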;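 further: calls also rest on retests at 20 µM and on dose response follow-up; 0% = protein and probe with vehicle and 100% = probe without protein; strong numbers were not always called active; many hits fall short of the cut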
eIF4H FP inh retest: further read-out of eIF4H FP inh, marked with its call; inhibition, %; compound at 20 µM; confirmation average;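 mean of two retest wells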
PABP polyA inh retest: further read-out of PABP polyA inh, marked with its call; inhibition, %; compound at 20 µM; confirmation repeats;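 mean of two retest wells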
MT1-MMP act inh RFP: further read-out of MT1-MMP act inh, marked with its call; RFP signal change, %; measured here: RFP expression control read;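 0 = vehicle wells; hits needed this value within 50% of zero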
Numbers without * were called inactive; i = inactive; ? = inconclusive; . = not tested or not shown.

SMILES	PABP polyA inh	Rce1 inh	Yeast UUG start	CSC inhib	HIV Env fusion	MT1-MMP act inh	MT1-MMP act inh RFP	eIF4H FP inh	others
COC(=O)c1c(CSc2cccc(C)c2)noc1C(=O)NCc1ccco1	6	i	9	-17	-4	13	-5	-10
Cc1ccc(C(=O)O/N=C(\N)c2cccc([N+](=O)[O-])c2)cc1	-5	i	-15	-18	.	0	-3	-2
CCN1CCN(CCCOc2ccc(Cl)cc2Br)CC1	10	i	.	57	18	5	1	9
CC(C)c1nnc(NC(=O)C2c3ccccc3Oc3ccccc32)s1	0	i	-8	-24	.	-1	2	-9
Cc1ccc(NC(=O)COC(=O)Cc2ccccc2)cc1S(=O)(=O)N1CCOCC1	.	.	-4	0	-13	0	0	.
O=C(OCC(=O)N1CCCCC1)c1cc(NS(=O)(=O)c2ccc(Cl)c([N+](=O)[O-])c2)ccc1O	-5	i	.	3	-10	4	0	-5
O=C1c2ccccc2C(=O)C1c1ccccc1	56	i	-4	.	13	0	5	-4	eIF4H FP inh retest=14;PABP polyA inh retest=13
Cc1cc(C)c(OCC(=O)NCC(c2ccco2)N2CCCCC2)c(C)c1 (stereo unspecified)	.	.	1	.	17	-1	2	.
CCCCN(C)CC(O)Cn1cc(/C=C/C(=O)c2cccs2)c2ccccc21 (stereo unspecified)	2	i	11	22	.	-76	-6	-10
CC(C)COc1ccc(C(=O)N(Cc2ccco2)C2CCS(=O)(=O)C2)cc1 (stereo unspecified)	1	i	5	-9	.	-1	0	5
Brc1cccc(-c2nnc3sc(CNC4CCCC4)cn23)c1	0	i	-20	-1	-2	-1	1	4
Cc1ccc(C)c(N(C(=O)c2snc(C(N)=O)c2N)C(C(=O)NCC2CCCO2)c2ccc(C)o2)c1 (stereo unspecified)	16	i	.	-11	-5	-4	-4	2
COc1ccccc1-c1n[nH]c(=S)o1	4	.	-19	-21	.	4	-1	-9
CCOc1ccc2nc(NC(=O)C3CCN(c4cnccn4)CC3)sc2c1	-4	i	-18	67	-43	3	-4	-6
O=C(c1cc2cc(Cl)ccc2oc1=O)N1CCOCC1	-2	i	0	-4	.	-2	4	-7
Cc1cc(=O)[nH]c(/N=C(\N)Nc2cccc3ccccc23)n1	0	i	-9	-13	.	-3	6	0
COC(=O)c1sc(S(=O)(=O)NCc2ccccc2)c(C(=O)OC)c1C	5	i	1	4	-1	4	-2	1
CCN(C(=O)COC(=O)COc1ccc2c(c1)CCC2)c1c(N)n(Cc2ccccc2)c(=O)[nH]c1=O	.	.	-17	.	-5	0	0	.
O=C(NCCCn1ccnc1)C1c2ccccc2Oc2ccccc21	-2	i	-8	-9	16	-1	1	-1
Cc1cc(C)c2c(N)c(C(=O)NCC3CCCCC3)sc2n1	14	i	37	.	.	4	2	0
COc1ccc(CCNS(=O)(=O)c2ccc(-c3ccc(=O)[nH]n3)o2)cc1OC	-5	i	-9	-6	-1	0	1	7
CCn1ccc(C(=O)Nc2cccc(Cl)c2)n1	5	i	.	-7	-32	1	2	-4
CCOc1ccc(N2C(=O)CC(SCc3nc4ccccc4[nH]3)C2=O)cc1 (stereo unspecified)	10	i	.	10	12	-3	4	1
Cc1ccc(-c2cc(N)nc(-c3ccccc3)c2)cc1	12	.	6	37	-21	0	0	-1
CCc1ccccc1NC(=O)CNC(=O)CCNC(=O)Nc1ccccc1	.	.	-18	.	-2	3	3	.
CC(C)CNC(=O)C1CCN(S(=O)(=O)c2ccc3c(c2)OCCO3)CC1	.	i	.	-8	23	0	-4	.
O=C1NCCCCC1NS(=O)(=O)c1ccccc1 (stereo unspecified)	-5	i	.	.	-5	-5	-1	-5
O=C(N/N=C\C=C\c1ccco1)c1cncc(Br)c1	46*	i	-14	.	7	6	5	66*	eIF4H FP inh retest=91*;PABP polyA inh retest=74*
N/C(=N\N=C\c1ccco1)SC1CC(=O)N(c2ccccc2)C1=O (stereo unspecified)	-2	i	.	-17	7	4	2	2
O=C(COc1ccccc1)N1CCN=C1SCc1ccccc1	4	i	.	.	12	10	4	4
CC1Cc2ccccc2N1CC(=O)Nc1ccc2c(c1)OC(F)(F)O2 (stereo unspecified)	-8	i	-12	0	-72	6	4	4
O=C(COC(=O)C12CC3CC(CC(Br)(C3)C1)C2)N1CCOCC1	18	i	.	-2	-14	-3	2	2
COc1ccc(NC(=O)C2CCN(S(=O)(=O)c3ccc(Cl)c(C(F)(F)F)c3)CC2)cn1	.	.	12	.	5	1	-11	.
Cc1ccc(Cn2c(SCCN3CCCCC3)nc3c2c(=O)n(C)c(=O)n3C)cc1	2	i	9	4	.	-1	3	-5
CCOc1ccccc1NC(=O)CCc1ccc(C)o1	-5	i	-21	0	.	0	-1	9
CCN(CC)Cc1csc(C(N)=O)c1	12	i	-11	19	-69	1	3	8
Cc1ccc(C(=O)NCCc2nnc3ccc(SCC(=O)N4CCCC4)nn23)cc1	-3	i	-17	-27	4	0	1	5
O=C(COC(=O)CCc1ccccc1)NC12CC3CC(CC(C3)C1)C2	-8	i	-7	4	6	0	-8	-9
CCCn1c(N2CCC(Cc3ccccc3)CC2)nc2c1c(=O)[nH]c(=O)n2C	-6	i	-5	8	.	-6	-17	-9
CCN(CC)S(=O)(=O)c1ccc(C(=O)/C=C/c2ccc(-c3ccc([N+](=O)[O-])cc3)o2)cc1	?	i	.	.	23	-3	3	?
COCCCN1C2=C(C(=O)CC(C)(C)C2)C(c2ccc(O)c(OC)c2)C2=C1CC(C)(C)CC2=O	7	i	19	-18	6	-3	0	6
NS(=O)(=O)c1ccc(N/C=C\C(=O)c2ccc(F)cc2)cc1	-6	i	.	-2	-22	2	3	-4
COc1cc(OC)cc(C(=O)Nc2ccc(S(=O)(=O)Nc3cnc4ccccc4n3)cc2)c1	.	i	0	-18	2	-2	-2	.
COCC(=O)N(Cc1cc2ccccc2[nH]c1=O)c1ccccc1OC	-16	i	-8	-6	.	1	5	-13
COc1ccc(C(=O)c2oc3ccc(OC)cc3c2N)cc1	0	i	-19	63	-40	-6	-5	8
O=C(c1ccccc1F)N1N=C(C(F)(F)F)CC1(O)c1ccccc1 (stereo unspecified)	.	.	-19	.	-25	1	1	.
COc1ccc(CN(CCCN2CCOCC2)C(=O)Nc2ccccc2)cc1OC	3	i	-1	.	9	4	1	-4
CCc1ccc(NC(=O)C(=O)NNC(=O)COc2cccc(OC)c2)cc1	-9	i	.	7	-1	3	3	6

Retrieved by structure from the list above (2):
SMILES	PABP polyA inh	Rce1 inh	Yeast UUG start	CSC inhib	HIV Env fusion	MT1-MMP act inh	MT1-MMP act inh RFP	eIF4H FP inh	others
CCN(CC)Cc1csc(C(N)=O)c1	12	i	-11	19	-69	1	3	8
Cc1cc(C)c2c(N)c(C(=O)NCC3CCCCC3)sc2n1	14	i	37	.	.	4	2	0

(further entries)
SMILES	PABP polyA inh	Rce1 inh	Yeast UUG start	CSC inhib	HIV Env fusion	MT1-MMP act inh	MT1-MMP act inh RFP	eIF4H FP inh	others
CCOC(=O)c1c(C)[nH]c(C)c1S(=O)(=O)N(C)CC(=O)Nc1cccc(C)n1	9	i	-16	17	1	0	-1	-11
COc1ccc(NCC(=O)Nc2cccc(S(=O)(=O)N3CCCC3)c2)cc1Cl	.	.	-16	-3	i	7	-7	.
O=C(COC(=O)c1ccc(S(=O)(=O)NCc2ccco2)cc1)c1ccccc1	15	i	.	.	14	-1	1	5
COc1cc(C2c3c(oc4cc(C)c(C)cc4c3=O)C(=O)N2c2cc(C)ccn2)ccc1O (stereo unspecified)	-5	i	0	.	.	-4	-4	-4
N/C(=N\OC(=O)c1cccc(Br)c1)c1ccncc1	1	i	1	-3	-20	1	2	-8
COc1cccc(/C=N/c2oc(-c3ccccc3)cc2C#N)c1O	-2	i	.	-5	-468	-3	-1	-8
COC(=O)c1ccc2c(=O)n(Cc3ccc(C(=O)NC4CCCC4)cc3)c(=S)[nH]c2c1	-4	i	.	-8	-2	.	.	-5
CCN(C(=O)c1ccc(NC(=O)c2ccco2)cc1)c1ccccc1	-4	i	-10	-7	-15	1	-1	-7
COc1cc(NS(=O)(=O)c2c(C(=O)N3CCOCC3)c(C)n(C)c2C)cc(OC)c1OC	-2	i	-17	1	4	0	2	-2
O=C(CSc1nnc(NC(=O)c2ccccc2)s1)NCC1CCCO1 (stereo unspecified)	-1	i	-17	2	-25	-1	2	-4
CCOC(=O)C(C#N)=CN1CCN(C(=O)CCCl)c2ccccc21	.	.	-5	.	18	2	1	.
CCOc1ccccc1NC(=S)N1CCC(c2nc3ccccc3o2)CC1	2	i	-33	0	-13	0	-4	-8
O=C(CSc1ccc(S(=O)(=O)N2CCCC2)cn1)Nc1ccc([N+](=O)[O-])cc1C(F)(F)F	.	.	-13	.	38	-3	-10	.
COc1ccc(/C=C/C(=O)NCC(=O)N/N=C(/C)c2ccco2)cc1	4	i	-12	2	-1	3	-2	-2
Nc1cc(=O)[nH]c(=O)n1-c1cccc(F)c1	13	i	.	4	51	2	3	-10
Cc1nn(-c2ccccc2)c(Cl)c1/C=N/NC(=O)CNc1n[nH]c(=O)[nH]c1=O	3	i	.	-12	-1	.	.	7
COC(=O)c1ccccc1NC(=O)C(CCS(C)(=O)=O)NC(C)=O (stereo unspecified)	6	i	-10	9	.	0	-2	5
COc1ccc(CNCC2COc3ccccc3O2)cc1 (stereo unspecified)	9	i	-13	6	16	5	6	2
COCc1cc(=O)[nH]c(/N=C(\N)Nc2c(F)cccc2F)n1	1	i	-14	-10	5	-1	0	7
Cc1ccc(C)c(S(=O)(=O)N2CCN(C(=O)CN3C(=O)C4CC=CCC4C3=O)CC2)c1 (stereo unspecified)	.	.	6	.	-49	-2	-3	.
CC(NC(=O)c1ccc(N2CCCC2)c([N+](=O)[O-])c1)c1ccc(S(N)(=O)=O)cc1 (stereo unspecified)	3	i	-6	-8	7	5	0	-8
CSc1nsc(SCC(=O)NCc2ccc(C)cc2)n1	-4	i	-16	-9	2	-2	2	-3
Cc1ccc(CN2CC(C(=O)N3CCN(S(=O)(=O)c4c(F)cccc4F)CC3)CC2=O)cc1 (stereo unspecified)	.	i	.	1	-9	22	-9	.
C/C(N)=C(/C#N)C(=O)CSc1nc2cc(Cl)ccc2s1	-4	i	.	6	-31	-7	-4	2
O=C(c1ccc(Cn2cc(Br)cn2)o1)N1N=C(C(F)F)CC1(O)C(F)F (stereo unspecified)	-2	i	8	.	.	5	2	-9
NC(=S)N1OC[C@@H]2COc3ccc4ccccc4c3[C@@H]21	-3	i	.	21	12	2	-10	-10
CCOc1ccc(S(=O)(=O)N2CCC(C(=O)NC3CCCCC3)CC2)cc1	3	i	10	-8	.	0	-3	7
Cc1c(-c2cccs2)[n+](=O)c2c(n1[O-])CCCC2	-13	i	-4	-6	-31	0	5	8
Cc1sc2nc(C(C)C)nc(SCC(=O)NC3CC3)c2c1C	10	i	-11	0	14	0	2	-9
Cc1onc(C(=O)NN)c1C(=O)N1CCN(C(c2ccccc2)c2ccccc2)CC1	-11	i	.	5	-2	-23	-6	6
COc1ccc(CNC(=O)c2c(O)c3cccc4c3n(c2=O)CCC4)cc1OC	9	i	-26	36	.	-1	-14	2
